Mtb bLac sens: beta-lactam sensitization of Mtb H37Rv; hit rate 0.27% among 330,000; inhibition, % at 25 µM; AID 434955; M. tuberculosis H37Rv growth with meropenem, percent inhibition; hits of this screen are not shown here;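 active = about 74% or more and at least 40 points above the plate without the antibiotic, then above 30% in a dose series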;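 also: growth measured after seven days incubation then overnight dye step; 0% = bacteria only wells and 100% = bacteria with antibiotic; twin plates without the antibiotic show which effects depend on it; some results filed as inactive read as strong as hits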
RecA splice inh: inhibitors of M. tuberculosis RecA intein splicing; P9WHJ3; hit rate 0.75% among 290,000; inhibition, %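 (about 9 µM by stock and volumes)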; cell-free RecA intein splicing, fluorescence; in the data active = inhibition above about 30%;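 also: 0% = vehicle wells and 100% = reference inhibitor control wells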
Target sequence (P9WHJ3 whole entry, looked up, canonical isoform): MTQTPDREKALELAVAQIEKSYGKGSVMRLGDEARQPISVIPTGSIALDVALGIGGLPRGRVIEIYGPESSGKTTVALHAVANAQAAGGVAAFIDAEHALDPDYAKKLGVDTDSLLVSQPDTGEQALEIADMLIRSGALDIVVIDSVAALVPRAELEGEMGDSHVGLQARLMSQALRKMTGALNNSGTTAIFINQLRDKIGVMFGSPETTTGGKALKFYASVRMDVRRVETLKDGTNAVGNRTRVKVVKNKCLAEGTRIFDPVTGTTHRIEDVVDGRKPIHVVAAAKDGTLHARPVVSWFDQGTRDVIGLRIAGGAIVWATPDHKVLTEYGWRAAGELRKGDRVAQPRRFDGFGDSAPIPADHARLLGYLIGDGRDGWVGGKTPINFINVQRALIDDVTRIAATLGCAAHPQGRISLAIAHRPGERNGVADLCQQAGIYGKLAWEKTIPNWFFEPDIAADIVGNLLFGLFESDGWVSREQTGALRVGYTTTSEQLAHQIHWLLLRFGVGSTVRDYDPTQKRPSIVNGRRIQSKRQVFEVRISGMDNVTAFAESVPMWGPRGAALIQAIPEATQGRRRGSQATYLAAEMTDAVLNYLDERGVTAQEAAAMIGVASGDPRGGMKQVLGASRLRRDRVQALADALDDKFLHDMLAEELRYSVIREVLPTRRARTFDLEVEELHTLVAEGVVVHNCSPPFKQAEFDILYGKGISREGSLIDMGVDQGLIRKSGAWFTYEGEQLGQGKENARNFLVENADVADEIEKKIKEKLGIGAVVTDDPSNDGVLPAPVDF
Arbovirus anti: antivirals against arbovirus infection. arbovirus infection cell-based antiviral screen. inhibition, % at 10 µM. hit rate 0.37% among 200,000. AID 1251;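 active = inhibition from about 30%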;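 also: bluetongue infection of BSR cells; cell survival read as ATP light after 72 h; 0% = infected wells without compound and 100% = uninfected wells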
Mtb growth: M. tuberculosis H37Rv growth inhibitors, H37Rv strain (AID 1626); M. tuberculosis H37Rv growth inhibition; higher % means a stronger effect; inhibition, % at 10 µM, or IC50 in µM where a hit was titrated; hit rate 0.95% among 220,000;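 active = confirmed in a dose series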;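 also: bacteria incubated seven days before Alamar blue readout; 0% = bacteria only wells and 100% = bacteria with antibiotic wells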
YopH inh: YopH (Yersinia) phosphatase inhibition; inhibition, %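 (about 10 µM by stock and volumes)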; hit rate 0.16% among 140,000; fluorescence Ex485/Em525; AID 898;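 active = inhibition of 50% or more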;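 also: controls were vehicle for no effect and minimum signal wells for full effect; inactives centre near -20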
Arbovirus anti repeat: recorded beside Arbovirus anti, whose call it bears; inhibition, %; measured here: 10K subset replicate screen; many hits read low in the repeat;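 first of two repeat runs on a subset; 0% = infected and 100% = uninfected wells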
* marks the source's active call; other numbers are inactive results; x = no result given. An excerpt, so the mix of outcomes need not match the whole.

SMILES	Mtb bLac sens	RecA splice inh	Arbovirus anti	Mtb growth	YopH inh	others
Cc1ccccc1C(=O)Nc1nnc(CC(=O)N/N=C/c2ccncc2)s1	11	1.4	x	-7%	x
CCOC(=O)Cc1csc(NC(=S)NC(=O)c2ccccc2)n1	1	2.6	-6	11%	-20
CC(=O)Nc1ccc(NC(=O)C(C)c2cccc(C(=O)c3ccccc3)c2)cc1 (stereo unspecified)	5	-0.8	-1	7%	-11
O=C(NC1CCCCCCC1)c1cnccn1	-4	-1.1	3	9%	-28	Arbovirus anti repeat=0
CCn1nccc1C(=O)Nc1ccccc1OC	-5	-3.0	x	x	x
Cc1ccc2nc(Cl)c(/C=N/Nc3ccc(C(=O)O)cc3)cc2c1	7	-16	x	1%	x
O=C(/C=C/c1ccccc1)N1CCN(c2ccccn2)CC1	-11	x	9	-19%	-4
Nc1c(C(=O)NCc2ccc(F)cc2)c2nc3ccccc3nc2n1CCCN1CCOCC1	100	-149	-37	14%	-20
COc1cc(-c2nc(=S)[nH][nH]2)cc(OC)c1OC	3	-6.2	0	-5%	x
O=C(Nc1cc(Cl)ccc1Cl)c1ccco1	-5	-2.1	x	x	x
COC(=O)CNc1nc(OC)nc(N(C)C)n1	3	7.4	4	1%	-4
CCOC(=O)C1CCN(C(=O)C2CC(=O)N(c3ccc4c(c3)OCCO4)C2)CC1 (stereo unspecified)	-2	-1.1	x	x	x
FC(F)(F)c1ccc2c(c1)n(Cc1ccccc1)c1[n+]2CCCCC1	-8	1.8	3	4%	x
Cc1cnc(NC(=O)CN2C(=O)C3CC=CCC3C2=O)s1 (stereo unspecified)	2	-1.6	-2	-8%	-28
Cc1ccc(S(=O)(=O)N(C)Cc2ccc(C(=O)N/N=C3\CCCC(=O)C3)cc2)cc1	-2	-0.6	-6	2%	-24
Cc1nn(C)cc1CNC(=O)c1cc2n(n1)C(C(F)(F)F)CC(c1cccs1)N2 (stereo unspecified)	-10	-1.2	4	-2%	-30
COc1cccc(CN2CCC(C(=O)N3CCC(C)CC3)CC2)c1	-9	1.1	-2	1%	x
C/C(=N\NC(=O)C1CCCN(S(=O)(=O)c2ccccc2)C1)c1ccccn1 (stereo unspecified)	86	0.1	-36	11%	-19
OCC(CO)(CO)NCc1ccc(-c2ccccc2)cc1	-7	-0.5	6	4%	-20
Cc1oc(-c2cccs2)nc1CN1CCN(Cc2ccc(F)c(F)c2)C(CCO)C1 (stereo unspecified)	4	-4.3	6	8%	x
CC1=C(C(=O)Nc2ccccc2)C(c2ccc(C)o2)N2C(=O)CSC2=N1 (stereo unspecified)	7	2.2	5	2%	-38
COc1ccc2c(c1)c(CCN1C(=O)c3ccccc3C1=O)cn2C(=O)c1ccco1	0	-0.3	-2	-3%	-47	Arbovirus anti repeat=-6
CCOc1ccc2[nH]c(=O)c(CN(Cc3cccs3)Cc3nnnn3C(C)(C)C)cc2c1	7	-1.7	-32	12%	-22
CS(=O)(=O)N(CC(=O)NCCSCc1ccco1)c1ccc(Cl)cc1	15	0.4	4	1%	x
CCOc1ccc2nc(Cl)c(C3CC(c4ccccc4)=NN3C(=O)c3ccco3)cc2c1 (stereo unspecified)	4	-2.2	7	2%	-26
Cc1cc(O)c(/C=N/c2ccccn2)c(=O)o1	-10	-0.3	7	3%	-50
O=C(CSc1c2c(nc3cc(Cl)ccc13)CCCC2)NCCN1CCOCC1	-1	3.1	6	4%	x
Cc1ccccc1-c1noc(-c2ccccc2F)n1	x	6.0	5	4%	-29
CCOc1ccccc1Oc1c(C)oc2cc(OC(=O)c3ccco3)ccc2c1=O	4	3.9	-2	11%	-20
O=C(Nc1ccccc1)C(=O)Nc1ccccn1	-2	x	-4	-7%	-40
CC(=O)c1cccc(NC(=O)N2CCCC2C(=O)Nc2cc(C)ccc2C)c1 (stereo unspecified)	-8	0.3	6	8%	-41
CCc1c(C(=O)Nc2ccccc2)c(C)[nH]c(=S)c1C#N	7	x	-5	1%	-24
CCOc1ccc(/C=N/NC(=O)c2ccccc2NC(=O)c2ccc(OC)cc2)cc1	-3	5.0	1	5%	-26
CCOc1ccc(S(=O)(=O)Nc2nc3ccccc3nc2-n2ccc(=NC(=O)c3ccccc3C)cc2)cc1	-6	2.8	x	-4%	x
O=[N+]([O-])c1cccc(CN2CCN(Cc3ccc(Br)cc3)CC2)c1	3	1.2	16	5%	x
c1ccc2c(Nc3ccc4c(c3)OCCO4)c3c(nc2c1)CCCC3	88	7.4	-1	11µM*	x
CCCN(CCC)C(=O)C1CCCN(S(=O)(=O)c2ccc3c(c2)oc(=O)n3C)C1 (stereo unspecified)	1	-5.2	x	x	x
COc1ccccc1C(=O)NCC(=O)N/N=C(\C)Cc1ccccc1	5	-1.6	x	x	x
Cc1cc(NC(=O)CCC(=O)N(CC(C)C)C(C(=O)NC(C)(C)C)c2ccccc2Cl)no1 (stereo unspecified)	-6	-0.5	x	x	x
Cc1cccc(CCNC(=O)CCNS(=O)(=O)c2cc(Br)cnc2N)c1	-1	-0.8	x	x	x
CC(=O)Nc1ccccc1C(=O)OCc1ccc(F)cc1	-6	5.4	-2	5%	x
CCN(CC)S(=O)(=O)c1csc(C(=O)NCc2ccccc2)c1	1	1.7	0	-13%	8
Cc1c(CN2CCC(n3nccc3NC(=O)C3CCOC3)CC2)[nH]c2ccccc12 (stereo unspecified)	3	-1.3	x	x	x
Fc1ccc2nc(Nc3nc4c(F)cc(F)cc4s3)sc2c1	4	3.8	25	71%	-28
CCC(=O)NC(NC(=S)Nc1c(C)n(C)n(-c2ccccc2)c1=O)C(Cl)(Cl)Cl (stereo unspecified)	-5	-0.1	1	-6%	-8
Nc1nc(-c2ccco2)nn1C(=O)c1ccc([N+](=O)[O-])cc1	5	22	11	10%	x
CCOC(=O)C1CCCN(C(=O)C2CCN(C(=O)Nc3ccccc3)CC2)C1 (stereo unspecified)	-4	-8.4	x	x	x
COc1ccc(N2CC(C(=O)Nc3ccc(S(=O)(=O)Nc4nccs4)cc3)CC2=O)cc1 (stereo unspecified)	15	10	1	-8%	x
CCNc1nc(NCC)nc(OCCNS(=O)(=O)c2ccccc2)n1	-2	-5.3	x	-2%	x
CCCn1ncc(CN2CCC(Oc3ccc(C(=O)N4CCCC4)cc3)CC2)c1C	2	0.6	x	x	x
CN1CCN(S(=O)(=O)c2cccc(C(=O)Oc3ccccc3Cl)c2)CC1	-19	6.3	x	x	x
Cc1nc(-c2ccc(Cl)cc2)sc1C1(C)CC(c2c(Cl)cccc2Cl)=NO1 (stereo unspecified)	50	0.6	x	1%	x
CC(C)CCNC(=O)c1cccc(S(=O)(=O)N2CCc3ccccc32)c1	-3	1.2	8	3%	-19
COc1ccc(C(=O)NCCN2CCOCC2)c(OC)c1OC	2	-0.9	4	-2%	x
Cc1ccc2[nH]c3c(=O)n(N)c(=O)[nH]c3c2c1	-12	1.3	x	2%	x
Cc1ccc(C(=O)OCc2nnc(-c3ccccc3)o2)o1	11	1.7	1	-8%	-47
O=S(=O)(NCCc1cn2ccccc2n1)c1ccc(F)c(C(F)(F)F)c1	-3	1.8	1	3%	-4
CCCCN(CCCC)CCCNC(=O)c1ccc2nc(-c3ccccc3NC(C)=O)c(=O)[nH]c2c1	1	2.1	0	1%	x
COCCOc1ccc(C(F)(F)F)cc1NC(=O)c1ccc(F)cc1	-2	-5.8	-14	3%	-21
Cc1ccc(C(=O)NCCNC(=O)c2ccco2)cc1C	-1	0.2	x	x	x

Molecules shown so far that have an aryl methoxy group (9):
SMILES	Mtb bLac sens	RecA splice inh	Arbovirus anti	Mtb growth	YopH inh	others
CCn1nccc1C(=O)Nc1ccccc1OC	-5	-3.0	x	x	x
COc1cc(-c2nc(=S)[nH][nH]2)cc(OC)c1OC	3	-6.2	0	-5%	x
COC(=O)CNc1nc(OC)nc(N(C)C)n1	3	7.4	4	1%	-4
COc1cccc(CN2CCC(C(=O)N3CCC(C)CC3)CC2)c1	-9	1.1	-2	1%	x
COc1ccc2c(c1)c(CCN1C(=O)c3ccccc3C1=O)cn2C(=O)c1ccco1	0	-0.3	-2	-3%	-47	Arbovirus anti repeat=-6
CCOc1ccc(/C=N/NC(=O)c2ccccc2NC(=O)c2ccc(OC)cc2)cc1	-3	5.0	1	5%	-26
COc1ccccc1C(=O)NCC(=O)N/N=C(\C)Cc1ccccc1	5	-1.6	x	x	x
COc1ccc(N2CC(C(=O)Nc3ccc(S(=O)(=O)Nc4nccs4)cc3)CC2=O)cc1 (stereo unspecified)	15	10	1	-8%	x
COc1ccc(C(=O)NCCN2CCOCC2)c(OC)c1OC	2	-0.9	4	-2%	x

Carrying on:
SMILES	Mtb bLac sens	RecA splice inh	Arbovirus anti	Mtb growth	YopH inh	others
Cc1nn(CC(=O)N2CCOCC2)c(=O)c2nn(-c3ccccc3)c(C)c12	11	-2.4	x	x	x
COC(=O)c1c(-c2ccccc2)c(-c2ccccc2)nn(C)c1=O	-6	2.5	x	x	x
CCN(c1ccccc1)S(=O)(=O)c1ccc(OC)c(NC(=O)c2cccs2)c1	4	-1.4	-7	2%	x
N#Cc1ccccc1NC(=O)COC(=O)COc1ccccc1[N+](=O)[O-]	6	2.2	0	-9%	x
CCn1cc(C2=NOC(C(=O)O)C2)c(C)n1 (stereo unspecified)	-12	-3.7	-1	1%	-24
CON(C)c1nc(NCC(C)C)nc(OCC#N)n1	-2	-4.4	-1	-11%	-34
CC(=O)N(C1=C(O)c2ccccc2C(=O)C1=O)C1CCCCC1	1	x	3	1%	21
O=C(CN1C(=O)CCC1=O)Nc1ccc(Br)cc1	92	2.5	14	-10%	-26
CCOC(=O)c1c(C)[nH]c(C(=O)N(C)Cc2cccc(OC)c2OC)c1C	2	0.9	x	x	x
COc1ccc(S(=O)NC2CCCCC2)c(OC)c1C (stereo unspecified)	-2	4.2	-7	-8%	0
Cc1cccnc1NC(=O)c1ccc(Cl)c(S(=O)(=O)N2CCCCC2)c1	-6	0.0	x	x	x
COc1cc(OC)cc(-c2nnc(SCC(=O)N(C(C)C)C(C)C)o2)c1	3	-1.2	-6	1%	-41
COc1ccc(C(=O)Nc2cc(C)on2)cc1OC	-4	-3.1	x	x	x
CN(CCOc1ccccc1)C(=O)c1cc(COc2c(F)cccc2F)on1	3	6.1	x	x	x
Cc1cccc(N(CC(=O)NCCSCc2ccccc2)S(C)(=O)=O)c1C	-3	1.1	-11	15%	x
c1ccc2c(c1)CCCC2NC1=NCCC1 (stereo unspecified)	-4	-4.3	4	-2%	-27
CN(CC(O)COc1ccc2ccccc2c1)C1CCCCC1 (stereo unspecified)	-4	-1.1	x	x	x
CC(=O)OCC(=O)[C@@]1(O)CC[C@H]2[C@@H]3C[C@H](C)C4=CC(=O)C=C[C@]4(C)[C@H]3[C@@H](O)C[C@@]21C	-8	0.2	x	x	x
O=c1c(Cc2ccc(Cl)cc2)c(O)ccn1Cc1ccccc1	9	-5.3	3	0%	-24
O=C(Nc1ccc(CN2CCOCC2)cc1)c1ccc(Cl)cc1Cl	-1	1.2	x	x	x
CCc1nc(Nc2ccc(N3CCN(C(C)=O)CC3)cc2)c2oc3ccccc3c2n1	83	1.8	0	6%	-37
Cc1noc(COc2ccccc2OCC(O)CNC(C)(C)C)n1 (stereo unspecified)	0	x	14	-1%	-13
CN(C)CCCCOc1cccc(Br)c1	5	-1.4	2	11%	8
CC(=O)Oc1ccc(N2C(=O)C3C4C=CC(O4)C3C2=O)cc1 (stereo unspecified)	4	2.2	0	-12%	-42	Arbovirus anti repeat=-2
CS(=O)(=O)N(CC(=O)NC1CCCCCC1)Cc1ccc(Cl)cc1	-6	-0.1	10	-3%	-7
O=C(NC1CCN(Cc2nnnn2CCc2ccccc2)CC1)c1ccccc1F	-6	2.2	4	-7%	17
CN(Cc1nc2ccccc2n1C)C(=O)c1cccs1	-10	-2.7	3	-7%	35
CC12CN3CC(C)(CN(C1)C3c1ccc(Br)cc1)C2 (stereo unspecified)	-13	-11	10	1%	-120
c1ccc(COn2c(-c3ccccc3)nc3c2CCc2nonc2-3)cc1	-10	-0.7	4	7%	-25
Cc1ccc(C(=O)Nc2scc(-c3ccccc3)c2C(=O)O)cc1	30	3.9	x	x	x
CCCc1cc(=O)oc2cc3oc(C)c(C)c3cc12	-3	3.0	-1	x	-52
COc1ccc(N(CC(=O)NC2CC3CCC2C3)S(=O)(=O)c2ccc(C)c([N+](=O)[O-])c2)cc1 (stereo unspecified)	3	-2.0	x	x	x
COc1ccc(C(CCNCc2ccc(N(C)C)cc2)c2ccccc2OC)cc1 (stereo unspecified)	36	-1.2	x	x	x
Cc1cccc(NC(=S)NCCc2ccccn2)c1	4	x	x	-7%	x

Among those listed so far, these have an aryl thioether with sulfur outside any ring.
SMILES	Mtb bLac sens	RecA splice inh	Arbovirus anti	Mtb growth	YopH inh	others
O=C(CSc1c2c(nc3cc(Cl)ccc13)CCCC2)NCCN1CCOCC1	-1	3.1	6	4%	x
COc1cc(OC)cc(-c2nnc(SCC(=O)N(C(C)C)C(C)C)o2)c1	3	-1.2	-6	1%	-41
